Compound activity (PubChem BioAssay)
Rango complex inh = prevents formation of the Rango-importin beta complex; Q14974; Rango CFP/YFP FRET sensor + importin beta, 45 min; Potency, µM (top dose mostly 92.2 µM), for the others: top-dose inhibition of complex formation; 340,000 tested, 0.031% active; AID 540263; active = rising FRET ratio curve, often small or poorly fitted; inconclusive = mostly compound fluorescence or quenching in the first reads; inactive = flat curves in all reads;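 note: potency is the fitted concentration of half-maximal effect; 0% = DMSO wells and 100% = buffer wells lacking importin beta; nearly all actives have a fitted effect of over 15% in size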
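FRET biosensor (snurportin 1 IBB flanked by EYFP and cerulean), 50 nM, with compound 5 min, then 0.125 microM importin beta in PBS, 1 mM DTT, 0.02% Tween-20, 0.1% BSA. CFP/YFP ratio read after 45 min at room temperature; pre-read flags interference.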
GLA inh pH 4.5 = alpha-galactosidase A (human) inhibition, pH 4.5; purified enzyme, 4-MU-alpha-Gal fluorescence, pH 4.5; AID 1467; P06280; activity change, negative = inhibition, % at 105 µM; 230,000 tested, under 10 active; inconclusive = small, poorly fitted or top-dose-only inhibition, or a rising curve; inactive = flat fitted curve, though single readings scatter; no compound was filed as active;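 note: 0% = full activity with enzyme and -100% = basal without enzyme; dose as in the result columns while the protocol names 77 µM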
Target sequence (P06280 whole entry, looked up): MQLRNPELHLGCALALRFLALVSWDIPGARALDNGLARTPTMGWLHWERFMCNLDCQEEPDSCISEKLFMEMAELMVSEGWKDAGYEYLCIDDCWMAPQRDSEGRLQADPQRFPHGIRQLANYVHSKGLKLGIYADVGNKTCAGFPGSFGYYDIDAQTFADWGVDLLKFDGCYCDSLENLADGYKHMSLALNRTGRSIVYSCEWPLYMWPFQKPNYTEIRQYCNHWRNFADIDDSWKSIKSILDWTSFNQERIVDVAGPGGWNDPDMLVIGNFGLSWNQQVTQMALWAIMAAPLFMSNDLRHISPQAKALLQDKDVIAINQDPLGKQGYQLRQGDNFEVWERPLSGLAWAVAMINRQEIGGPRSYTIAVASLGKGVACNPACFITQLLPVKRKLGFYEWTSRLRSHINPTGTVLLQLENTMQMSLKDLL
Rango release inh = inhibition of RanGTP-driven Rango-importin beta dissociation; Biochemical FRET Rango-importin beta, RanGTP-induced dissociation; Potency, µM (series often up to 46.1 µM), for the others: at the highest dose activity change, negative = inhibition; 340,000 tested, 0.071% active; AID 540253; active means falling FRET ratio curve, often poorly fitted, with flat reads before Ran was added; inconclusive means other falling curves, or compound fluorescence or quenching; inactive means flat or rising ratio curve;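 note: potency is the fitted concentration of half-maximal effect; % of control where 0% means no effect; nearly all actives have a fitted effect of over 45% in size; -100% = wells without RanGTP and RCC1; the record marks most hits as doubtful in a second field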
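Quantitative HTS using a FRET biosensor: 0.1 uM Rango, 0.25 uM importin beta, 0.6 uM Ran, 2 mM GTP, 0.2 uM RCC1 final, PBS with DTT, Tween-20 and BSA. Post-read taken 45 min after Ran addition.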
miR-21 FLuc = miR-21 reporter, rising signal; Potency, µM (series often up to 38.3 µM), for the others: top-dose reporter change, positive = more light; HeLa miR-21 FLuc reporter, luciferase, 48 h; 340,000 tested, under 10 active; active = well fitted rising curve with a large enough effect; inconclusive = small, poorly fitted or top-dose-only effect; inactive = no such curve, though single readings can be large or run the other way;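 note: % of control where 0% means no effect; miR-21 action dims this reporter so a rising signal means less miR-21 action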
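HeLa miR-21-FLuc reporter line, endogenous miR-21; 2000 cells/well in DMEM/10% FBS; compound titration up to ~40uM final, 48 h, 37 degree Celsius; luciferase detection reagent, 15 min lysis, CCD luminescence.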
The depositor's hits bear a star; u = inconclusive; x = not tested or not shown. Some of the compounds tested (hit frequency here may not be typical).

structure,Rango complex inh,GLA inh pH 4.5,Rango release inh,miR-21 FLuc
O=C(NCc1ccccc1)C1CCC(=O)N(CCN2CCOCC2)C1 (stereo not given),-3.0%,x,-6%,-1%
O=C(Nc1ccc(C(F)(F)F)cc1)c1cccc(-n2cnnn2)c1,1.1%,x,42%,x
CCN(CC)C(=O)Cn1cc(S(=O)(=O)CC(=O)NCc2ccc3c(c2)OCO3)c2ccccc21,0.7%,1,-1%,0%
O=C(c1ccc2c(c1)OCO2)N1CCc2ccccc2C1,3.5%,10,-2%,-45%
COCCCn1c(SCC(=O)N2CCCC(C)C2)nnc1-c1ccco1 (stereo not given),2.6%,-3,-12%,1%
O=C(O)c1cc([N+](=O)[O-])ccc1C(=O)Nc1cccc([N+](=O)[O-])c1,1.4%,x,33%,0%
O=C(Cn1nc(Cc2cccnc2)c2ccccc2c1=O)NCCCN1CCCC1=O,4.9%,-1,-1%,-9%
CC(C)(O)C#CC#CCN1CCOCC1,-2.8%,-2,1%,1%
CCCCCCCOc1ccc(OC(=O)c2ccncc2)cc1,-0.3%,-3,10%,-3%
CCOC(=O)c1sc(NC(=O)C2CCCCC2)nc1C,2.0%,x,5%,x
COc1cc(OC)cc(C(=O)Nn2cc(C(=O)Nc3ccccc3F)c3ccccc3c2=O)c1,2.7%,-12,8%,8%
O=C1CSC(c2cccc([N+](=O)[O-])c2)N1C1CC2CCC1C2 (stereo not given),-0.8%,-14,-3%,-18%
COc1ccc(S(=O)(=O)NCCOc2cccc3cccnc23)cc1OC,-0.3%,10,0%,3%
O=C(c1cc([N+](=O)[O-])ccc1N1CCCCC1)N1CCCC1,9.8%,6,14%,-4%
CC(C)Oc1cccc(C(=O)C2CCCN(C(=O)c3cc(C4CC4)[nH]n3)C2)c1 (stereo not given),-0.3%,x,-14%,9%
O=C(CN1C(=O)NC2(CCCCCCC2)C1=O)Nc1ccc(Cl)cc1,3.5%,x,0%,x
O=C(O)c1ccc(Cn2cc(Cl)cn2)cc1,2.3%,0,u,-2%
CCOc1ccc(-c2n[nH]c(C(=O)NN)c2C)cc1,-0.1%,0,-4%,-52%
O=C(Nc1ccccc1C(=O)N1CCCCC1)c1ccco1,1.4%,x,-6%,-6%
O=C(COC(=O)/C=C/c1cccc(Br)c1)NCc1cccs1,2.5%,x,1%,x
COc1ccc2[nH]c(C(=O)N3CCC(Cc4ccccc4)CC3)cc2c1,-1.9%,x,-1%,-4%
Cc1nc(N2CCN(Cc3ccccc3)CC2)nc2c1CCC2,3.5%,5,0%,0%
Cc1nc(Nc2ccc(Cl)cc2)c2nnn(Cc3ccccc3)c2n1,-1.2%,-1,5%,8%
Cn1c(/C(C#N)=C(\O)c2ccc([N+](=O)[O-])s2)nc2ccccc21,0.7%,x,10%,-5%
OCCNCCO,-0.3%,x,1%,-4%

The listing continues.
structure,Rango complex inh,GLA inh pH 4.5,Rango release inh,miR-21 FLuc
Cn1cc(CN(CCO)Cc2cccs2)c(-c2ccccc2F)n1,0.5%,7,7%,-2%
CN(C)CCNC(=O)c1ccc(CS(=O)(=O)c2ccc(Br)cc2)o1,-0.5%,x,0%,x
CCOC(=O)c1nn(-c2ccc3c(c2)CCN3C(C)=O)cc1O,-2.2%,-6,26%,-9%
CC(=O)OCC(=O)C1(O)CCC2C3CCC4=CC(=O)CCC4(C)C3(F)C(O)CC21C (stereo not given),1.3%,x,-12%,x
CCCCN(CC(=O)NC1CC1)S(=O)(=O)c1ccc(OCC)cc1,-0.6%,x,-1%,x
CC(=O)Nc1cccc(NC(=O)CSc2nnnn2Cc2ccccc2)c1,-0.9%,-22,-9%,-3%
Cc1c(C=O)c2ccccn2c1C(=O)c1ccc(Cl)c([N+](=O)[O-])c1,-0.3%,1,-8%,1%
COC(=O)c1[nH]c2ccccc2c1NC(=O)C(C)N1CCOCC1 (stereo not given),-3.6%,-3,16%,-2%
CCS(=O)(=O)n1nc(-c2ccc(C)cc2)nc1N,2.0%,12,-2%,-20%
CCNc1nn2ccccc2c1/C=C(\C#N)C(=O)OCC,u,-11,10µM*,2%
CCOc1ccc(-n2nnc3c(=O)n(CC(=O)Nc4cc(C)on4)cnc32)cc1,0.2%,-9,-16%,-1%
O=C(c1cc(C2CC2)on1)N1CCN(c2ccccc2)CC1,-1.9%,-6,0%,-18%
COc1ccc(NC(=O)COc2ncnc3ccccc23)cc1S(=O)(=O)N1CCOCC1,0.6%,-4,-2%,-4%
Cn1c(=O)c(=O)n(C)c2cc(S(=O)(=O)N3CCC(N4CCCCC4)CC3)ccc21,-0.8%,x,15%,x
C=CCOc1ccc(CN(C)Cc2nc3cc(C(F)(F)F)ccc3c(=O)[nH]2)cc1,-4.3%,-2,26%,4%
CC1CC(C)CN(S(=O)(=O)c2ccc(Cl)cc2)C1 (stereo not given),0.8%,x,1%,5%
Cc1ccc(CNC(=O)C2CC(=O)N(C3CCCCCC3)C2)cc1 (stereo not given),2.7%,1,10%,1%
O=C(N/C(=C\c1ccccc1)C(=O)N1CCOCC1)c1ccccc1Cl,-0.1%,x,-13%,1%
CC(C)[C@@H]1CN=C(N)N1C[C@@H]1CCCN1C[C@H](C)N1C[C@@H](Cc2ccccc2)N(CCc2ccc(Cl)c(Cl)c2)C1=N,0.6%,x,-3%,x
Cc1ccc2oc(-c3ccc(C)c(NC(=O)Cc4cccs4)c3)nc2c1,0.2%,1,15%,-10%
O=C(c1ccc(NS(=O)(=O)c2cccc([N+](=O)[O-])c2)cc1)N1CCCCCC1,1.0%,x,-18%,x
Cc1nn(-c2cc(N3CCCCC3)ccc2N)c(=O)c2ccccc12,1.0%,-10,-5%,-9%
O=C(O)CN1c2cccc3cccc(c23)S1(=O)=O,-6.3%,x,11%,-2%
Cc1cc(OCCCCN2C(=O)NC(C)(C)C2=O)cc(C)c1Cl,-2.6%,-14,-1%,-3%
O=C(Cc1ccc([N+](=O)[O-])cc1)NC(C(=O)O)C(O)c1cccc([N+](=O)[O-])c1 (stereo not given),-0.8%,x,-2%,-1%

Some entries already given with just Rango release inh, GLA inh pH 4.5 and miR-21 FLuc:
SMILES | Rango release inh | GLA inh pH 4.5 | miR-21 FLuc
Cn1cc(CN(CCO)Cc2cccs2)c(-c2ccccc2F)n1 | 7% | 7 | -2%
CC1CC(C)CN(S(=O)(=O)c2ccc(Cl)cc2)C1 (stereo not given) | 1% | x | 5%

The list goes on.
structure,Rango complex inh,GLA inh pH 4.5,Rango release inh,miR-21 FLuc
Oc1ccc(/C=N/Nc2ccnc3cc(Cl)ccc23)c(O)c1,2.7%,-4,-15%,-23%
CCOc1ccc2nc(/N=C/c3c(C)[nH]n(-c4ccccc4)c3=O)sc2c1,u,3,u,-35%
CCc1cccc(NC(=O)CCNS(=O)(=O)c2cc(Br)cnc2N)c1,-3.3%,x,38%,1%
S=c1nc(-c2ccco2)[nH][nH]1,1.2%,0,-2%,0%
Cn1c(C(=O)NN)cc2cc(Oc3ccccc3)ccc21,-1.1%,x,0%,1%
CC1(C)C[C@H](O)[C@]2(CO)CC[C@]3(C)C(=CCC4[C@@]5(C)CC[C@H](O)C(C)(C)C5CC[C@]43C)[C@@H]2C1 (stereo not given in full),u,x,-9%,x
O=C(O)/C=C/C(=O)Nc1ccc(N2CCOCC2)nc1N1CCOCC1,-3.2%,-14,-10%,-2%
CSc1nc(C)c(CCOC(=O)c2ccccc2)c(=O)[nH]1,-2.2%,9,1%,-4%
COc1ccccc1N(CC(=O)NC(C)(C)C)S(=O)(=O)c1cccs1,-0.2%,-4,4%,-2%
COc1cccc(COC(=O)Cc2ccc(S(=O)(=O)N3CCOCC3)s2)c1OC,-0.5%,x,20%,x
CC(=O)c1ccc(NC(=O)C(C)Nc2ccc(Cl)cc2)cc1 (stereo not given),0.2%,-6,5%,10%
N#Cc1c(N)nc2c(c1N)CC(CO)O2 (stereo not given),-0.4%,2,3%,-3%
CC(C)CC(CO)N1CCN(C(=O)c2cccc(Cl)c2)CCC1=O (stereo not given),7.6%,x,8%,x
Cc1nn(-c2ccc(C(=O)O)cc2)c(C)c1Cl,5.6%,-4,-7%,-18%
O=C(CCC1CCCC1)Nc1nnc(-c2ccc3c(c2)OCO3)s1,0.0%,3,-11%,-11%
Cc1[nH]c(C)c(S(=O)(=O)NCc2ccc(F)cc2)c1C(=O)N1CCCCC1,0.6%,x,-15%,-7%
O=C(CN(CC1CCCO1)C(=O)CNS(=O)(=O)c1ccc(Cl)cc1)NC1CCCC1 (stereo not given),-0.1%,x,-5%,-1%
C=CCOC(=O)/C(=C\c1ccccc1)NC(=O)c1ccco1,4.4%,-3,-15%,-3%
OCC[C@@H]1C[C@@H](O)[C@H](O)[C@]2(OCCc3ccccc32)O1,3.1%,x,0%,1%
Cc1nc(-c2ccc(NC(=O)CC(C)C)cc2)cs1,0.4%,-3,2%,-44%
COC(=O)c1ccc(CO/N=C/c2ccccc2OC)cc1,3.3%,x,1%,-10%
CCc1nnc(NC(=O)CCC(=O)N2CCN(Cc3ccccc3)CC2)s1,-3.5%,0,-6%,0%
CC[C@]1(C(=O)OC)[C@H]2C(=O)N(C)C(=O)[C@H]2[C@H]2CN=C(SCc3ccc(Cl)cc3)N21,1.3%,x,3%,x
CCNc1nc(N)nc(Oc2ccc(C(=O)OC)cc2)n1,-2.4%,-4,-11%,-80%
O=C(CCn1[nH]c(=O)c2ccccc2c1=O)OC1CCCCC1,-1.9%,-5,0%,-9%

The listing continues:
structure,Rango complex inh,GLA inh pH 4.5,Rango release inh,miR-21 FLuc
CC(CNC(=O)CN1C(=O)CCSc2ccccc21)c1ccccc1 (stereo not given),2.4%,x,1%,-7%
Cc1cc(=O)[nH]c(SCC(=O)c2ccccc2)c1C#N,u,6,-18%,-32%
CS(=O)(=O)N(CC(=O)NCc1ccco1)Cc1ccc(Cl)cc1,-4.0%,-21,4%,-1%
O=C1C=C(N2CCOCC2)c2ccccc2C1=O,1.4%,x,-18%,u
Cc1cc(C)n(CC(C)NCc2cn[nH]c2-c2ccc(C)c(C)c2)n1 (stereo not given),-0.7%,6,20%,-1%
COc1cccc(NC(=O)N(Cc2ccco2)C(C)c2cccs2)c1 (stereo not given),0.3%,6,-1%,-5%
c1cnc(N2CCN(c3nc4ccccc4n4cnnc34)CC2)nc1,1.4%,3,4%,-16%
Cc1cc(C)c(C#N)c(N2CCCC(C(N)=O)C2)n1 (stereo not given),2.1%,-9,-6%,-4%
COc1ccc(N(C(=O)CNC(=O)c2ccco2)C(C(=O)NC2CCCCC2)c2ccncc2)cc1 (stereo not given),-1.2%,x,0%,2%
Cn1c(=NC(=O)c2ccccc2[N+](=O)[O-])sc2cccc(F)c21,-2.2%,5,u,-60%
O=C(CNS(=O)(=O)c1ccc(Br)s1)N1CCN(c2ncccn2)CC1,-1.4%,3,2%,-5%
O=C(Oc1cccc(C(=S)N2CCOCC2)c1)c1cc([N+](=O)[O-])cc([N+](=O)[O-])c1,5.1%,5,4%,-2%
O=C(c1cnn2c(C(F)F)cc(-c3ccccc3)nc12)N1CCN2CCCC2C1 (stereo not given),1.8%,-4,-13%,-8%
CC(=O)N1CCOc2ccc(S(=O)(=O)NCC3CCC(C(=O)Nc4ccc(C)cn4)CC3)cc21 (stereo not given),0.1%,x,2%,26%
C=CCc1cccc2cc(C(=O)NC3CCCCC3)c(=O)oc12,2.3%,-4,11%,-14%
O=C(CCN1CCCC1Cc1ccccc1)c1ccc2c(c1)OCCO2 (stereo not given),5.0%,4,-5%,6%
Cc1ccccc1N(C(=O)c1snc(C(N)=O)c1N)C(C(=O)NC1CCCC1)c1ccco1 (stereo not given),-0.3%,x,-2%,-2%
COc1ccc(-c2nnsc2N2C(=O)c3ccccc3C2=O)cc1,-0.3%,4,2%,-6%
CCOC(=O)c1c(-c2ccc(C)o2)csc1NC(=O)CN1CCC(C(N)=O)CC1,0.0%,10,2%,16%
